# Screening results from PubChem BioAssay.
# Cruzain inh Det: blocks cruzain activity in presence of Triton detergent. purified cruzain, Z-FR-AMC fluorescence, 0.01% Triton. Potency, µM, for the others: max response, negative = inhibition, usual class: inhibitors. hit rate 0.43% among 200,000. AID 1478; active means well fitted curve in the direction sought with a large enough effect; inconclusive means small, poorly fitted or top-dose-only effect, or another doubt; inactive means no such curve, though single readings can be large; an effect the other way counts as inactive or inconclusive;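 further: plate controls were neutral wells for no effect and buffer without enzyme for full effect; nearly all actives have a fitted effect of over 40% in size; top concentration of the series not given in the record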
# Target sequence (P25779 123-467 limits assumed): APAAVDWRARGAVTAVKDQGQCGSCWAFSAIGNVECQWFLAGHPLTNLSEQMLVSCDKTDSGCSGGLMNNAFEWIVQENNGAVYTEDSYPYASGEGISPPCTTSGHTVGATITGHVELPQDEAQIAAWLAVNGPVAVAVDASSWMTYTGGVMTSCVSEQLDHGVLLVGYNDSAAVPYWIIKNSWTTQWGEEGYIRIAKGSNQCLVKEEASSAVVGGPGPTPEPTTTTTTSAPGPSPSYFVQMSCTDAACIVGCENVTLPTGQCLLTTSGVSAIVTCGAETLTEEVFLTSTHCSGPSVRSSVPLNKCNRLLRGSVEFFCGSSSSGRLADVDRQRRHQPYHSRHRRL
#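 Sodium acetate buffer (100 mM, pH 5.5) containing 5 mM DTT and 0.01% Triton X-100 hosted 1.5 nM cruzain and test compound for 15 min at room temperature. Cleavage of 2 uM Z-FR-AMC was then tracked by fluorescence.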
# Lassa entry inh: Lassa virus entry inhibition. Lassa virus pseudotype entry inhibition, cell reporter; control for the full effect not named in the record. hit rate 1.2% among 300,000. AID 540256. Potency, µM (titrated, usually from 37.9 µM), for the others: top-dose activity change, negative = inhibition, usual class: inhibitors; active means well fitted inhibition curve with a large enough effect; inconclusive means small, poorly fitted or top-dose-only effect, or effect the other way; inactive means flat fitted curve, though single readings scatter; tested in HEK293 cells; further: on the % scale 0 is the no-effect control and ±100 the full control effect; nearly all actives have a fitted effect of over 50% in size; luciferase read-out
# Cruzain noTriton: blocks cruzain activity in detergent-free assay; P25779; purified cruzain, Z-FR-AMC fluorescence, no detergent; Potency, µM, for inactives: max response, negative = inhibition, usual class: inhibitors; hit rate 2.3% among 200,000; AID 1476; active means well fitted curve in the direction sought with a large enough effect; inconclusive means small, poorly fitted or top-dose-only effect, or another doubt; inactive means no such curve, though single readings can be large; an effect the other way counts as inactive or inconclusive;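 further: plate controls were enzyme without inhibitor for no effect and buffer without enzyme for full effect; nearly all actives have a fitted effect of over 40% in size; top concentration of the series not given in the record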
#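 Purified cruzain at 1.5 nM, pre-incubated 15 min with compound at room temperature in 100 mM sodium acetate pH 5.5, 5 mM DTT, 0.00005% Triton X-100. Reaction started with 2 uM Z-FR-AMC; AMC fluorescence increase over 60 s gives rate.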
# MARV entry inh: inhibitors of Marburg virus binding or cell entry; Marburg virus pseudotyped entry inhibition, cell reporter; control for the full effect not named in the record; about a third of the inactives were read at about 46 µM; Potency, µM (highest dose often 37.8 µM), for the others: at the top dose activity change, negative = inhibition, hits mostly inhibitors; hit rate 1.8% among 300,000; active = well fitted inhibition curve with a large enough effect; inconclusive = small, poorly fitted or top-dose-only effect, or effect the other way; inactive = flat fitted curve, though single readings scatter; tested in HEK293 cells; about a fifth of its hits are not listed in these tables; further: on the % scale 0 is the no-effect control and ±100 the full control effect; luciferase read-out
# NS1 inh: inhibitors of influenza NS1 protein function | Potency, µM (top dose mostly 46.1 µM), for the others: at the top dose activity, positive = more growth | AID 2326 | hit rate 0.4% among 270,000 | S. cerevisiae slowed by influenza A NS1, growth recovery by OD600; further: actives are rising curves; nearly all actives have a fitted effect of over 50% in size
#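 Read-out: OD600 growth recovery of NS1-expressing budding yeast. Cells grown overnight at 30C in -URA glucose medium, washed, resuspended and diluted 1:100 in 2% galactose assay medium, pH 6.0. Same strain lacking NS1 served as positive control.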
# SARS PLP yeast: inhibitors of SARS-CoV papain-like protease in yeast; S. cerevisiae expressing SARS-CoV PLpro, growth rescue; control for the full effect not named in the record; Potency, µM (highest dose often 32.9 µM), for inactives: at the highest dose activity, positive = growth rescue; hit rate 0.19% among 330,000; further: 0% is about no effect; nearly all actives have a fitted effect of over 55% in size; growth read by luminescence after 48 h
# RE007 growth inh: less growth of the S. pombe RE007 Vpr strain; hit rate 0.21% among 360,000; AID 651644; Potency, µM (doses to about 92.2 µM), without a hit: at the top dose activity change, negative = less growth; S. pombe RE007 Vpr strain, BacTiter-Glo ATP luminescence, 24 h; control for the full effect not named in the record; active = well fitted falling curve with a large enough effect; inconclusive = small, poorly fitted or top-dose-only effect; inactive = no such curve, though single readings can be large or run the other way;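 further: on the % scale 0 is the no-effect control and ±100 the full control effect; nearly all actives have a fitted effect of over 50% in size; the assay follows cell death caused by Vpr and the record does not say whether a fall means rescue or toxicity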
#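 Fission yeast RE007 carrying one integrated HIV-1 vpr copy, seeded at OD 0.01 in PMG+AL medium with 23 nL pinned compound. Grown 24 h at 30 degrees; viability read by BacTiter-Glo luminescence after 5 min.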
# StopGo reporter: lowers the luciferase signal of an FMDV 2A StopGo reporter | human cells with a luciferase reporter of 2A StopGo recoding; control for the full effect not named in the record | Potency, µM (highest dose often 57.9 µM), for the others: at the highest dose signal change, negative = less light | hit rate 1.2% among 410,000; active = well fitted falling curve with a large enough effect; inconclusive = small, poorly fitted or top-dose-only effect; inactive = no such curve, though single readings can be large or run the other way; tested in HEK293T cells; further: on the % scale 0 is the no-effect control and ±100 the full control effect; nearly all actives have a fitted effect of over 45% in size; luciferase light after 4 h
# * hit, by the source's call; ? = inconclusive; nt = not tested or not shown; & = joins results of further samples; [ ] = another dose, or the depositor's remark. Unless noted, the call rests on the fitted dose curve; in most records, active means well fitted rising curve with a large enough effect; inconclusive means small, poorly fitted or top-dose-only effect; inactive means no such curve, though single readings can be large or run the other way. Potency means the concentration at half of the fitted maximal effect.
No.	structure	Cruzain inh Det	Lassa entry inh	Cruzain noTriton	MARV entry inh	NS1 inh	SARS PLP yeast	RE007 growth inh	StopGo reporter
1	CC(=O)c1ccc(NC(=O)CNCC(c2ccccc2)N(C)C)cc1 (centres undefined)	nt	?	nt	-6%	nt	0%	6%	-3%
2	Cc1nn(-c2ccccc2)c(C)c1C1C(C#N)=C(N)Oc2n[nH]c(C)c21 (centres undefined)	-2.8%	-2%	2%	-12%	0%	1%	8%	-25%
3	Cc1c(O)ccc(/C=N/Nc2ncccc2[N+](=O)[O-])c1O	nt	?	nt	?	-2%	-5%	?	-20%
4	COC(=O)Cn1cc(/C=C/c2cc[n+](C)cc2)c2ccccc21	nt	nt	nt	nt	-14%	-3%	-2%	-10%
5	COc1ccc(OC)c(/C=C/C(=O)OCC(=O)N2C(C)CCCC2C)c1 (centres undefined)	nt	?	nt	-24%	nt	6%	-12%	-5%
6	O=S(=O)(Nc1ncccn1)c1ccc(NC(=S)Nc2ccc(Cl)cc2)cc1	nt	nt	nt	nt	-44%	-3%	0%	7%
7	O=C(c1nc2ccc(Cl)cn2c1CNCCc1cnccn1)N1CCCCCCC1	nt	-5%	nt	3%	2%	-4%	3%	-9%
8	CCC(C(=O)OCC(=O)N1C(C)CCCC1C)c1ccccc1 (centres undefined)	nt	12%[46.1 µM]	nt	16%[46.1 µM]	14%	-1%	-1%	8%
9	CCOC(=O)CSc1c(-c2cccs2)[nH]c2ccccc12	-11%	?	-13%	4%	-42%	-98%	11%	21%
10	CCCCc1ccc(NC(=O)CC(C)C)cc1	nt	-4%	nt	?	-35%	9%	16%	74%[activator]
11	O=C(Cn1cc2c(n1)CCCC2)NC1CCCCCC1	-1.1%	nt	4%	nt	-7%	2%	9%	-1%
12	CC12CCC(C(=O)Nc3ccccc3Cl)(C(Br)C1=O)C2(C)C (centres undefined)	-1.2%	?	5%	-23%	-2%	4%	nt	-29%
13	Cc1ccccc1NC(=O)C(C)n1c2ccccc2c2nc(=O)cc(C)n21 (centres undefined)	nt	nt	nt	nt	-2%	0%	1%	-16%
14	CN(CC(=O)N1CCCCC1)S(=O)(=O)c1cccc2nsnc12	nt	nt	nt	nt	-5%	0%	2%	5%
15	COc1cc(NC(=O)CN(C)S(=O)(=O)c2ccc(C)cc2)cc(OC)c1	-1.5%	3%	1%	?	-32%	3%	4%	?
16	Cc1cc([N+](=O)[O-])ccc1NC(=O)COc1nsnc1N1CCOCC1	nt	11%[46.1 µM]	nt	19%[46.1 µM]	-5%	2%	-12%	-22%
17	Nn1c(SCC(=O)Nc2ccc3c(c2)OCCO3)nnc1-c1ccncc1	nt	?	nt	-3%	2%	0%	-18%	-15%
18	CSc1ccc(CNC(=O)CCn2ccc3cc(S(=O)(=O)N4CCC(C)CC4)ccc32)cc1	-6.0%	-22%[46.1 µM]	5%	nt	nt	nt	nt	-3%
19	Cc1c(NC(=O)CN2CCN(C(c3ccccc3)c3ccccc3)CC2)c(=O)n(-c2ccccc2)n1C	-0.1%	-7%	-10%	-4%&-4%	-8%	-1%	-13%	-4%
20	CCOc1ccc(N(C)S(=O)(=O)c2ccc3[nH]cc(C(=O)NCC4CCCO4)c(=O)c3c2)cc1 (centres undefined)	-9.4%	-13%	?	-13%&-13%[46.1 µM]	-18%	1%	4%	-20%
21	CCc1ccccc1NC(=O)CCN1C(=O)C2C3CCC(C3)C2C1=O (centres undefined)	nt	nt	nt	-2%[46.1 µM]	nt	-6%	-1%	-9%
22	Cc1cc(C(=O)Nn2c(C3CCCCC3)nc3ccccc3c2=O)ccc1[N+](=O)[O-]	-3.9%	6%	3%	-10%	5%	-21%	2%	?
23	CCOc1ncccc1C(=O)Nc1ccc2c(C)cc(=O)oc2c1	-0.6%	-2%	2%	22%	-12%	?	3%	19%
24	Cc1noc(C)c1S(=O)(=O)N1CCCC1C(=O)NC(C)(C)C (centres undefined)	nt	nt	nt	nt	-8%	-4%	1%	-10%
25	Cn1cccc1CNCCc1ccccc1F	5.6%	6%	-7%	?	1%	-9%	-18%	-11%
26	O=C(O)COCC(=O)NCc1csc2ccc(Cl)cc12	nt	10%	nt	11%[46.1 µM]	?	1%	10%	2%
27	O=C1Nc2ccccc2N(O)N1c1ccc(Cl)c(Cl)c1	nt	5%	nt	9%[46.1 µM]	nt	2%	-4%	-2%
28	COc1ccc(NC(=O)c2cc(S(=O)(=O)N(C)C)ccc2N2CCCC2)cc1Cl	-8.7%	-13%	?	-13%	25%	-12%	11%	-26%
29	CCOC(=O)N1CCN(S(=O)(=O)N2CCCC(C(=O)NCc3cc(OC)ccc3OC)C2)CC1 (centres undefined)	0.6%	-4%[46.1 µM]	1%	nt	nt	nt	-2%	-8%&-24%
30	CC1=C(C(=O)Nc2ccc(Cl)cc2)C(C(C)C)n2nc(SCc3cccc(C)c3)nc2N1 (centres undefined)	-2.1%	4%[46.1 µM]	0%	5%[46.1 µM]	nt	nt	nt	-1%
31	O=C(COc1ccccc1[N+](=O)[O-])Nc1ccc(NC(=O)c2cc3ccccc3o2)cc1	nt	?	nt	?	-1%	0%	0%	-18%
32	O=C(O)COc1cccc2ccccc12	3.7%	27%	-8%	-3%	-9%	19%	-6%	-10%
33	CC1=Nc2cc(C(=O)NC3CCCCC3)ccc2Sc2ccc(Cl)cc21	-5.0%	4µM*	25µM*	nt	nt	nt	nt	-20%
34	Cc1cc(C(=O)COC(=O)c2ccc(O)cc2)c(C)n1CC1CCCO1 (centres undefined)	nt	nt	nt	?	nt	0%	20%	-17%
35	Cc1ccc(Cn2ccc(NC(=O)c3nc4ncccn4n3)n2)cc1	5.1%	17%	5%	11%	1%	nt	1%	5%
36	O=C1Cc2ccccc2C(=O)N1c1cccc(Cl)c1	nt	16%[46.1 µM]	nt	-21%[46.1 µM]	3%	1%	8%	-8%

# Two compounds picked at random from those above:
No.	structure	Cruzain inh Det	Lassa entry inh	Cruzain noTriton	MARV entry inh	NS1 inh	SARS PLP yeast	RE007 growth inh	StopGo reporter
13	Cc1ccccc1NC(=O)C(C)n1c2ccccc2c2nc(=O)cc(C)n21 (centres undefined)	nt	nt	nt	nt	-2%	0%	1%	-16%
30	CC1=C(C(=O)Nc2ccc(Cl)cc2)C(C(C)C)n2nc(SCc3cccc(C)c3)nc2N1 (centres undefined)	-2.1%	4%[46.1 µM]	0%	5%[46.1 µM]	nt	nt	nt	-1%

# (more compounds)
No.	structure	Cruzain inh Det	Lassa entry inh	Cruzain noTriton	MARV entry inh	NS1 inh	SARS PLP yeast	RE007 growth inh	StopGo reporter
37	COc1cc(NC(=O)c2cc3c(s2)-c2ccccc2OC3)cc(OC)c1OC	-12%	nt	?	-29%[46.1 µM]	nt	nt	nt	?
38	COc1cc(CNc2ccc3[nH]c(=O)[nH]c3c2)ccc1OCc1c(F)cccc1Cl	nt	?	nt	-15%	6%	-1%	0%	-23%
39	Cc1ccc(C(=O)N/C(=C\c2cn(C)c3ccccc23)C(=O)NCCCn2ccnc2)cc1	nt	2%[46.1 µM]	nt	5%[46.1 µM]	2%	-1%	7%	27%
40	O=S(=O)(NCCN1CCN(S(=O)(=O)c2ccccc2F)CC1)c1ccccc1F	nt	-21%	nt	?	nt	5%	4%	-16%
41	Cn1c(=O)c(=O)n(C)c2cc(S(=O)(=O)CCC(=O)Nc3ccc(F)cc3)ccc21	-6.4%	1%[46.1 µM]	-10%	26%[46.1 µM]	10%	-4%	1%	-5%&15%
42	CN(CC(=O)Nc1ccccc1Cl)C(=O)C1CCN(S(=O)(=O)c2ccc3c(c2)OCCO3)CC1	nt	-14%	nt	2%	nt	3%	-11%	-22%
43	Cc1ccc(/C=N/NC(=O)CN2C(=O)CSc3ccccc32)o1	nt	30%	nt	6%	11%	2%	4%	-10%
44	O=C(NCc1cccnc1)c1ccc(CS(=O)(=O)Cc2ccc(Cl)cc2)o1	3.4%	-1%	0%	-8%	-2%	0%	9%	-30%
45	O=C(c1ccc2ccccc2c1)N1CCCCC1	nt	13%[46.1 µM]	nt	-21%[46.1 µM]	4%	1%	-7%	19%
46	COc1ccc(C(=O)OC(C)C(=O)NC(C)CCc2ccccc2)c(OC)c1 (centres undefined)	nt	?	nt	-20%[46.1 µM]	-2%	0%	-2%	-19%
47	Cc1cc(N2CCOCC2)nc2ccc(NC(=O)CCC(=O)N3CCC4(CC3)OCCO4)cc12	-5.3%	15%	-1%	?	-3%	6%	-6%	37%[activator]
48	CCC(CO)NC1=C([N+](=O)[O-])C(=O)CC(C)(C)C1 (centres undefined)	-3.7%	3%	1%	3%	2%	14%	nt	-23%
49	c1ccc(-c2nnc(CSc3nnc(-c4cccs4)o3)o2)cc1	0.2%	5%	1%	-5%	-46%	-6%	2%	34%[activator]
50	O=C(NC1CCS(=O)(=O)C1)Oc1ccc(Cl)cc1 (centres undefined)	0.3%	0%	-24%	2%	-4%	2%	-4%	-22%
51	CCC(=O)N1CCCc2ccccc21	nt	nt	nt	nt	-6%	0%	15%	-5%
52	Cc1cccnc1NC(=O)COc1ccc2oc3c(c2c1)CCCC3	-7.0%	?	14%	11%&11%	-38%&-45%	-13%	?	10%
53	CSc1ccc(S(=O)(=O)Nc2ccc(N3CCOCC3)c(Cl)c2)cc1	-6.2%	-23%	-7%	-8%&-8%	-145%	-9%	2%	23%
54	CSc1ncc(Cl)c(C(=O)N(C)c2ccccc2)n1	-1.5%	2%[46.1 µM]	-2%	?	nt	nt	nt	-2%
55	CNc1nc(SC)nc(N2CCOCC2)n1	3.1%	-1%	4%	17%[46.1 µM]	-2%	1%	?	-16%
56	Cc1cc(C)cc(NC(=O)Cc2ccc(NC3=NC4CS(=O)(=O)CC4S3)cc2)c1 (centres undefined)	nt	nt	nt	nt	-14%	9%	6%	-4%
57	CCOC(=O)c1c(NC(=O)CCCN2CCOCC2)sc2c1CC(C)(C)OC2	-0.8%	2%	-6%	-13%[46.1 µM]	19%	1%	-9%	-13%
58	Cc1cc(C(=O)Nc2cccnc2)no1	2.2%	-4%	9%	24%	9%	5%	4%	0%
